From PubChem BioAssay
UCH37 DUB inh – inhibitors of human deubiquitinating enzyme UCH37 | Q9Y5K5 | AID 588478 | 0.33% of 330,000 active | purified proteasome/UCH37, Ub-AMC cleavage fluorescence | inhibition, % (no concentration beside the values);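 active = mean of two replicates above 20%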;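 note: 0% = compound-free wells with enzyme and 100% = wells lacking proteasome; stock transfer was 100 nL into about 20 µL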
Target sequence (Q9Y5K5 whole entry, looked up): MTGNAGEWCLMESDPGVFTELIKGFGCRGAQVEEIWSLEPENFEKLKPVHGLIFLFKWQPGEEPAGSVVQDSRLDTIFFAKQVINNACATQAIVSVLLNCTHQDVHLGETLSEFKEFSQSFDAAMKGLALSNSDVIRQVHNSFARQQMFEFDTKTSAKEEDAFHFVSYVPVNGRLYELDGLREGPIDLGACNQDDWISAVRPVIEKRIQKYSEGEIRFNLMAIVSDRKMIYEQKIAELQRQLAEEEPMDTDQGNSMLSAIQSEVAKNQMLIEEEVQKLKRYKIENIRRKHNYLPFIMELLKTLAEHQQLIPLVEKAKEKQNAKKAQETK
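Assay system: Proteasome-bound UCH37. Buffer or medium: pH 7.4 Tris-HCl (50 mM) with ovalbumin, ATP-MgCl2, DTT. Incubation: 30 min preincubation with enzyme, 25 min cleavage at room temperature. Measured by: fluorescence, ex 355 nm, em 460 nm. Read-out basis: percent inhibition. Control set: wells without proteasome as full block, compound-free enzyme plus substrate as uninhibited.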
MLL AF4-AF9 inh – blocks AF4 peptide binding to human AF9; P42568; inhibition, % at 10 µM; 0.47% of 350,000 active; AlphaScreen, biotin-AF4 peptide binding to FLAG-AF9;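 active = every replicate reaching a set inhibition limit, whatever the replicate mean, cut at about 25% in these data; inconclusive = mean inhibition reaches that limit but some replicates miss it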;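 note: 0% = plate neutral control median and 100% = total signal loss; the record names both 10 and 1 µM as test concentration; the first replicate is given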
Target sequence (P42568 whole entry, looked up): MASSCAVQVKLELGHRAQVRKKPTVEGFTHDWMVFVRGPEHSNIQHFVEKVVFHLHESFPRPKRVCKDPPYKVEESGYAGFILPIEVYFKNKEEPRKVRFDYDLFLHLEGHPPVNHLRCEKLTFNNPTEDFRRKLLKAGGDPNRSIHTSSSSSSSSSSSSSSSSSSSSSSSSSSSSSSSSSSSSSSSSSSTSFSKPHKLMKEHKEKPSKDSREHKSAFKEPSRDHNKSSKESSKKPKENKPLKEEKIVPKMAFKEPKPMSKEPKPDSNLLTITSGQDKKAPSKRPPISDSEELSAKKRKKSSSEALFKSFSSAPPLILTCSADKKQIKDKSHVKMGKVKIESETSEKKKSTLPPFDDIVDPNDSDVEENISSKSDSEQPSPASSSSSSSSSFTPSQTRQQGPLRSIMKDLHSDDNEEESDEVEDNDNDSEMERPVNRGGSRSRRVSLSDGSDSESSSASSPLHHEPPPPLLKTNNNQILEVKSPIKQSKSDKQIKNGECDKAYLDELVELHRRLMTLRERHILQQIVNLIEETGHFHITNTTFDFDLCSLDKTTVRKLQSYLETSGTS
Vif TR-FRET – inhibitors of Vif binding to APOBEC3G peptide, primary screen, biochemical, TR-FRET, GST-Vif 1-94, biotin-A3G peptide, dose response retest (AID 1117319). inhibition, %; hits with a dose series show IC50 in µM. 0.57% of 260,000 active. TR-FRET GST-Vif / biotin-A3G peptide binding; higher % means a stronger effect; test concentration not given here; strong numbers were not always called active;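 active = above the screen mean plus three standard deviations and confirmed in dose response; inconclusive = results disagree or hit not tested in dose response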;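 note: Vif residues 1-94 fused to GST binding biotinylated APOBEC3G peptide 110-148; 0% = full assay without inhibitor and 100% = GST in place of GST-Vif; retest series ran down from 100 µM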
E coli growth – blocks Escherichia coli growth. OD600, 23 h; stronger effect = lower value. 0.21% of 330,000 active. OD600 absorbance (no concentration beside the values). AID 1053175;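 active = OD600 absorbance below the run mean of sample wells minus 3.6 SD, in any replicate, cut at about 0.56 in these data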;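 note: stock transfer was 300 nL into about 60 µL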
RanGTP-Impb inh – inhibitors of RanGTP-importin-beta interaction, primary screen, biochemical, FRET, CFP-Ran, YFP-importin-beta, homogeneous; inhibition, % (concentration not given with the values); cell-free CFP-Ran/YFP-importin-beta FRET ratio; 1.1% of 300,000 active;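 active = most replicates above 15%; inconclusive = exactly half above 15%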;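 note: 0% = DMSO wells and 100% = Ran loaded with GDP instead of GTP; wells of about 40 µL received 100 nL stock; the first replicate is given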
FGF22 binding – FGF22 (human) thermal shift binding | recombinant FGF22 thermal shift, SYPRO orange fluorescence; percent of sucrose octasulfate shift, DMSO zero | calls only at 9.99 µM | 1.5% of 340,000 active | AID 651658;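 active = melting point raised past a set limit in the mean and every replicate; inconclusive = no clear call; three in four hits are not shown here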
Target sequence (Q9HCT0 whole entry, looked up): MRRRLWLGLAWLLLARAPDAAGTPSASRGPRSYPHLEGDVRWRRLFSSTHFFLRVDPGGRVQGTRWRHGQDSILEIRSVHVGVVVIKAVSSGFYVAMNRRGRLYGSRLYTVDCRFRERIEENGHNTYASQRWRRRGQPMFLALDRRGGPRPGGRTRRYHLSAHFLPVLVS
HNF4A DNA FP – change in binding of human HNF4 alpha to DNA; 0.3% of 360,000 active; activity change, % at 10 µM; P41235; AID 1224865; HNF4a-FITC DNA binding, fluorescence polarization, 1 h; in the data active = activity change above about 30%, passing the limit was not always enough;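 note: controls were the assay level and a saturating level of protein; the project sought stronger binding though the title names inhibitors; some compounds called inactive have numbers as strong as hits; positive values seem to mean higher polarization but the record does not say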
Active calls of the source: *; i = inactive; u = inconclusive; x = not tested or not shown; & = joins results of further samples. A portion of the library; count on the stated rates, not on these rows.

Values in the order – UCH37 DUB inh	MLL AF4-AF9 inh	Vif TR-FRET	E coli growth	RanGTP-Impb inh	FGF22 binding	HNF4A DNA FP
> COc1ccc(C(=O)NC(=S)NNC(=O)c2cnccn2)cc1OC
  14.9	x	31.2%	0.549	0.9	x	-1.5
> CCOC(=O)C1CCN(c2ccc(C(=O)O)cc2[N+](=O)[O-])CC1
  5.1	x	6.2%	0.709	1.7	x	0.3
> CC(NC(=O)CSc1nnc(-c2cccnc2)n1N)c1ccccc1 (stereo not given)
  4.1	-0.7	2.8%	0.697	1.4	i	3.2
> Cc1ccccc1C(=O)Oc1ccc(-c2csnn2)cc1
  6.1	-1.5	x	0.701	1.4	i	-1.2
> O=C(NCC1CC1)Nc1ccccc1F
  1.3	-7.9	-1.5%	0.662	0.8	i	2.2
> O=C(NC1CCCC1)C(c1ccsc1)N(C(=O)Cc1cccs1)c1cccc(F)c1 (stereo not given)
  4.5	x	6.0%	0.707	-1.4	x	0.4
> Cc1ncsc1C(=O)N1N=C2/C(=C/c3ccc(N4CCOCC4)cc3)CCCC2C1c1ccc(N2CCOCC2)cc1 (stereo not given)
  -12.3	x	20.7%	0.705	-0.4	x	6.3
> Cc1ccc(/C(N)=N/OC(=O)COc2ccccc2Cl)cc1
  1.3	x	0.9%	0.708	1.5	x	1.0
> CN(/C(=N/S(=O)(=O)c1cccs1)c1ccccc1)c1ccc(O)cc1
  x	-3.0	x	x	x	i	2.8
> COc1cc(C(=O)NNC(=O)c2ccccc2OCc2c(C)noc2C)cc(OC)c1OC
  0.4	-0.6	9.8%	0.633	x	i	4.2
> COC(=O)CCC(=O)OC1(C)C(=O)C=C2C=C(C3CC3)N(CCc3c[nH]c4ccccc34)C=C2C1=O (stereo not given)
  2.9	1.2	24.2%	0.7	-0.4	i	12.9
> NC(=S)NN=C1C2CC3CC(C2)CC1C3
  0.0	-0.5	4.5%	0.709	u	i	4.7
> O=C(COc1cccc(C(F)(F)F)c1)NCC(c1cccs1)N1CCOCC1 (stereo not given)
  2.9	0.8	-3.6%	0.694	x	i	4.7
> CCc1ccc2oc(C(=O)Nc3nonc3CC)c(C)c2c1
  3.5	-2.1	-9.1%	0.718	0.6	i	-2.3
> O=C(/C=C/c1ccccc1Cl)NNC(=O)c1cccs1
  3.3	-1.0	x	0.581	-2.6	i	-1.3
> O=C(c1ccccc1)c1ccccc1N/C=C/c1nnnn1-c1ccccc1
  7.7	x	8.2%	0.753	1.5	x	2.0
> CCOC(=O)C1(Cc2cccc(Cl)c2)CCCN(C(=O)CCN2CCCC2=O)C1 (stereo not given)
  x	-1.5	-2.3%	x	-0.2	i	5.2
> COc1ccc(/C=C2\SC(=O)N(CCNC(=O)C3CC(=O)N(c4ccccc4)C3)C2=O)cc1 (stereo not given)
  7.4	x	2.1%	0.705	-7.6	x	-0.2
> O=C(O)CC1Cc2ccccc2C1C(=O)O (stereo not given)
  x	-0.9	-0.3%	x	x	i	5.7
> COc1ccc(CCNC(=S)Nc2ccc(OC)cc2)cc1
  0.9	x	-11.1%	0.645	-3.4	x	0.0
> Cc1cccc(N(C)S(=O)(=O)c2ccc(-c3cnc(C4CC4)o3)cc2)c1
  1.7	-0.2	20.7%	0.683	-0.2	i	0.8
> COc1ccc(NC(=O)CCCCC#Cc2ccccc2)cc1
  4.1	-2.9	x	0.668	-2.4	i	2.4
> O=C(NNS(=O)(=O)c1ccccc1[N+](=O)[O-])c1ccc(O)cc1
  1.7	x	-1.1%	0.672	6.9	x	-0.9
> O=C1NC(Cc2ccccc2)c2nc3ccc(Br)cc3c(=O)n2-c2cc3ccccc3cc21 (stereo not given)
  x	0.5	-72.2%	x	x	i	-2.2
> CC(=O)c1c(C)nn(C(=O)N2CCOCC2)c1C
  -5.5	x	-4.3%	0.731	-4.2	x	0.0
> COC(=O)c1cc(NC(=O)C2CCCN(S(=O)(=O)c3c(C)n[nH]c3C)C2)cc(C(=O)OC)c1 (stereo not given)
  0.8	-4.0	-4.7%	0.668	0.7	x	x
> O=C(CCCn1c(=O)[nH]c2ccccc2c1=O)NCCSCc1ccccc1
  2.5	0.1	2.3%	0.707	1.0	i	-3.7
> COc1cc(C(=O)N/N=C/c2coc3ccccc3c2=O)cc(OC)c1OC
  x	-6.1	-5.3%	x	4.9	i	3.1
> O=C(NCCCN1CCN(CCCNC(=O)c2ccccc2F)CC1)c1ccccc1F
  5.0	x	3.1%	0.674	-1.4	x	2.7
> C[C@H](CO)N1C[C@H](C)[C@H](CN(C)C(=O)Nc2cccc3ccccc23)OCc2cnnn2CCCC1=O
  x	-1.7&-0.9&1.6	2.9%	x	x	i	-1.7

(cont.)
Values in the order – UCH37 DUB inh	MLL AF4-AF9 inh	Vif TR-FRET	E coli growth	RanGTP-Impb inh	FGF22 binding	HNF4A DNA FP
> Cc1cc(NC(=O)CCC(=O)N(CCC(C)C)C(C(=O)NC2CCCC2)c2ccccc2C)no1 (stereo not given)
  0.3	-0.5	x	0.657	-1.3	i	0.9
> CCOc1ccc(NS(=O)(=O)c2ccc(C(=O)NCCCN3CCOCC3)cc2)cc1
  0.9	-0.3	x	0.698	4.3	i	-1.9
> O=C(OCC(=O)N1CCCC1=O)c1ccc(F)c(S(=O)(=O)N2CCOCC2)c1
  0.4	0.6	-0.7%	0.696	4.6	i	-3.7
> O=C(Nc1cc2c3c(c1)CC(=O)N3CCC2)c1ccccc1Br
  1.8	-1.9	-0.4%	0.654	-5.5	i	2.7
> Cc1nc2ncnn2c(N2CCCC(C(=O)Nc3ccc4c(c3)CCC4)C2)c1C (stereo not given)
  3.5	x	-1.3%	0.717	-1.1	x	-1.4
> CCn1c(SCC(=O)C(C)(C)C)nnc1-c1cnccn1
  2.4	x	-1.0%	0.652	0.0	x	-2.4
> CCOC(=O)C1CCN(S(=O)(=O)c2c(C(=O)N3CCCCC3)c(C)n(C)c2C)CC1
  2.2	-3.6	-6.3%	0.715	u	i	-0.5
> O=C(NC1CCCCCC1)c1ccc(OCC2CCCO2)cc1 (stereo not given)
  6.6	x	-9.2%	0.688	-0.6	x	-2.9
> COc1ccc(Nc2oc(-c3ccc(F)cc3)nc2C#N)cc1
  -120.7	2.3	x	0.726	-5.6	i	8.9
> CN(c1ccccc1)S(=O)(=O)c1cc(C(=O)NCc2ccco2)ccc1Cl
  x	-2.3	4.2%	x	x	x	2.1
> CC/C(=N\NC(=O)c1c(-c2ccccc2)noc1C)c1ccc(C)o1
  x	x	-5.1%	x	4.1	x	-1.1
> FC(F)(F)COc1nc(OCC(F)(F)F)nc(N2CCN(c3ccccc3)CC2)n1
  -1.4	x	2.2%	0.814	x	x	1.8
> O=c1c2c([N+](=O)[O-])cc([N+](=O)[O-])cc2sn1Cc1ccccc1
  x	-1.9	x	x	0.4	i	-1.9
> Cc1[nH]c2ccccc2c1-c1nc(N)sc1C
  5.6	8.9	4.3%	0.674	1.8	i	1.2
> Clc1cccc(-c2cc3nc4c(c(N5CCOCC5)n3n2)CCCC4)c1
  -57.3	x	15.0%	0.681	1.3	x	-2.0
> CC1(CNC(=O)C(=O)NCC2(C)CO2)CO1 (stereo not given)
  2.1	-2.2	-4.7%	0.683	x	i	4.0
> O=C(O)C1CCCN1S(=O)(=O)c1ccc(Cl)c(Cl)c1 (stereo not given)
  2.3	-84.3	0.9%	0.689	4.9	i	-6.0
> Cc1ccc(N(CC(=O)NCCc2ccccc2)C(=O)c2csnn2)cc1
  1.5	0.5	x	0.662	-1.2	i	0.6
> Cc1cc(=O)oc2cc(OCC(=O)OCC(=O)Nc3ccccc3F)ccc12
  -53.4	0.0	-2.6%	0.684	0.0	i	-2.7
> NC(=O)CSc1nccn1Cc1ccc2c(c1)OCO2
  3.8	-0.5	0.7%	0.707	1.5	i	-1.3
> Cc1ccc(S(=O)(=O)N2CCOCC2)cc1C(=O)NC1CCCC1
  3.8	6.5	x	0.665	1.1	i	4.0
> COc1ccc(N2CCN(C(=O)Cn3cnc4c(cnn4-c4ccc(C)cc4)c3=O)CC2)cc1
  1.8	-2.8	9.1%	0.738	2.0	i	-3.8
> COC(=O)c1scc2c(=O)cc(C(F)(F)F)[nH]c12
  -160.7	-5.8	x	0.644	116.9*	i	-9.4
> CCN(CC)C(=O)CSc1nc(-c2ccc(C)cc2)nc2c1COC(C)(C)C2
  4.3	x	u	0.71	-1.1	x	1.1
> CN(CCN1CCOCC1)C(=O)c1cc(COc2ccc(F)c(F)c2)on1
  -2.5	-4.9	-1.5%	0.661	u	i	-1.3
> Cc1ccc(N=Cc2ccc(O)cc2O)cc1F
  0.1	x	-0.3%	0.658	x	x	5.0
> O=c1c2sc3ccccc3c2[nH]c(=S)n1CCN1CCOCC1
  1.4	-4.2	-0.6%	0.688	-1.0	i	7.9
> CCOC(=O)[C@@H]1[C@H]2COc3cc(OC)ccc3[C@H]2N2C(=O)N(c3cccc(F)c3)C(=O)[C@@]12C
  1.1	x	x	x	x	i	1.1
> CC(C)c1ccc(CNC(=O)CCc2ccccc2)cc1
  1.9	-2.4	7.0%	0.682	12.4	i	1.8
> O=S(=O)(NCCO)c1cccc2cccnc12
  3.5	-2.9	20.8%	0.744	u	i	1.8

Two of the compounds above, with values ahead of the structure.
UCH37 DUB inh,MLL AF4-AF9 inh,Vif TR-FRET,E coli growth,RanGTP-Impb inh,FGF22 binding,HNF4A DNA FP,SMILES
5.6,8.9,4.3%,0.674,1.8,i,1.2,Cc1[nH]c2ccccc2c1-c1nc(N)sc1C
-57.3,x,15.0%,0.681,1.3,x,-2.0,Clc1cccc(-c2cc3nc4c(c(N5CCOCC5)n3n2)CCCC4)c1

(list continues)
Values in the order – UCH37 DUB inh	MLL AF4-AF9 inh	Vif TR-FRET	E coli growth	RanGTP-Impb inh	FGF22 binding	HNF4A DNA FP
> CC(=O)NCC1(c2ccccc2)CCN(CCCC(=O)c2ccc(F)cc2)CC1
  x	-6.5	2.1%	x	x	i	2.9
> O=C(NCc1ccc(F)cc1F)[C@@H]1CCCN1C(=O)[C@@H]1CCCN1
  x	-2.0	x	x	x	i	-3.7
> N/C(=N\c1nc2c(c(=O)[nH]1)CCC2)Nc1cccc(Cl)c1
  x	x	27.3%	x	0.4	x	0.1
> CCC(C)(C)NC(=O)C(c1cccn1C)N(C(=O)Cn1nnc2ccccc21)c1ccc(NC(C)=O)cc1 (stereo not given)
  1.8	3.8	-1.4%	0.658	-2.6	i	-1.1
> Cc1cc(C)c(S(=O)(=O)NCC(CCC(=O)O)C(F)(F)F)c(C)c1 (stereo not given)
  2.5	-4.6	-5.9%	0.719	1.5	i	1.9
> CCn1c(SCC(=O)Nc2nc(-c3ccccc3)cs2)nnc1-c1ccccc1O
  5.2	x	26.8%	0.692	7.6	x	0.1
> CCn1c(CC(=O)Nc2ccc(OC)cc2)nnc1SCC(=O)N1CCOCC1
  1.1	-3.0	x	0.713	3.8	i	1.4
> Cc1ccc(Nc2c(-c3ccc(C)o3)nc3cnccn23)cc1
  -26.9	-9.3	1.6%	x	10.9	i	-0.6
> C=CCn1c(SCC(=O)Nc2cc(C)on2)nc2ccccc21
  x	1.8	-3.2%	x	x	i	-0.7
> COc1cc(S(=O)(=O)NCc2ccncc2)c(OC)cc1Br
  3.3	0.7	x	0.707	-1.0	i	0.2
> Cc1ccccc1C(=O)N/N=C/c1ccncc1
  x	x	1.2%	x	0.0	x	1.2
> CCN(CC(=O)Nc1c(F)cccc1F)C(=O)CC1CCCCC1
  3.0	-5.6	-8.9%	0.706	x	i	-3.1
> CCCCOc1ccc(C(=O)NCCOc2cccc(OC)c2)cc1
  3.2	-3.1	-3.7%	0.639	0.5	i	0.0
> C=CCC[C@H](CCCCC)OC(=O)/C=C/[C@H](O)[C@@H](O)C[C@H](O)CC=C
  x	-2.1	x	x	x	i	0.6
> CC(C)[C@H](NC(=O)Nc1cccc(Br)c1)C(=O)O
  -0.8	-0.6	u	0.709	-4.4	i	0.8
